KCNQ2 inh: KCNQ2 channel blockers in CHO-K1 cells – cell-based, FluxOR thallium flux, B-score, primary screen (AID 2156) | O88943 | 20 min; stronger effect = lower value; only compounds with negative scores are shown here; some inactives read as strong as hits | B-score at 10 µM | 310,000 compounds, 1.1% hits;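 active = fluorescence ratio B-score at most minus 3 library SDs, with starting brightness B-score within 2 library SDs, cut at about -5.5 in these data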
Target sequence (O88943 whole entry, looked up): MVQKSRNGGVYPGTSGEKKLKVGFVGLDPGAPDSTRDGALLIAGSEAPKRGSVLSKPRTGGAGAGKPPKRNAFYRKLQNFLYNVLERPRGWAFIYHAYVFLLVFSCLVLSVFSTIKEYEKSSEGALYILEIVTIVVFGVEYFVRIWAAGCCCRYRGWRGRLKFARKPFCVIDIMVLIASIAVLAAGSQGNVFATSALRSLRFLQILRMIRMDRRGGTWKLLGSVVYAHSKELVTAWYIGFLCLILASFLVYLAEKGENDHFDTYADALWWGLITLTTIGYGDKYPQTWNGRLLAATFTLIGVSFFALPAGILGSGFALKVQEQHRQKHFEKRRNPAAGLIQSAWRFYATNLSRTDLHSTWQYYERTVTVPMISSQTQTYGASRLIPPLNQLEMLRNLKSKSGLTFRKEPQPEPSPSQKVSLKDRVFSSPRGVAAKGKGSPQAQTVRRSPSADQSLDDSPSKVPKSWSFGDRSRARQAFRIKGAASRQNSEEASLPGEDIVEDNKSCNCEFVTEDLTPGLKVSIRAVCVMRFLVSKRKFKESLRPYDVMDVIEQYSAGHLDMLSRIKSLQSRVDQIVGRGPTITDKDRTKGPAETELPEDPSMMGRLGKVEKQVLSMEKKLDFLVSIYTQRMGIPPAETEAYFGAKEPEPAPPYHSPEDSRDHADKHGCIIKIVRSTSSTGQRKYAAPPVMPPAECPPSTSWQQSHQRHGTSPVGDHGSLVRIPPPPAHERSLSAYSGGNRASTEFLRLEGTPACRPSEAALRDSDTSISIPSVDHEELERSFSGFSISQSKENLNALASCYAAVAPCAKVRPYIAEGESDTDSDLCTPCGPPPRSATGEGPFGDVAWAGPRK
KCNQ2 inh baseline: recorded beside KCNQ2 inh, whose call it bears; B-score; measured here: initial fluorescence intensity artifact check;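 brightness before thallium and not channel activity; 0 = typical well and far values either way flag optical interference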
An asterisk follows results filed as active. The list is partial; the hit share may differ from the screen's.

Results for O=C(Nn1c(Cc2cccs2)nc2ccccc2c1=O)c1ccc(F)c(F)c1 ?
KCNQ2 inh: inactive; KCNQ2 inh baseline: 0.02

What do the screens show for `Cc1ccc(NC(=S)N(Cc2cccs2)Cc2cc3cccc(C)c3[nH]c2=O)cc1`?
KCNQ2 inh: inactive; KCNQ2 inh baseline: 1.18

What do the screens show for `CC1CC(=O)C2=C(C1)Nc1ncnn1C2c1ccccc1` (configuration not stated)?
KCNQ2 inh: inactive; KCNQ2 inh baseline: 0.34

What do the screens show for `Cc1cc(C(=O)Nc2c(F)cc(F)cc2Br)c(C)o1`?
KCNQ2 inh: inactive; KCNQ2 inh baseline: 1.02

Results for CCN(CC(=O)Nc1ccc2c(c1)OCCO2)S(=O)(=O)c1ccc(F)cc1 ?
KCNQ2 inh: inactive; KCNQ2 inh baseline: -0.59

Results for O=S1(=O)N=C(N/N=C/c2ccco2)c2ccccc21 ?
KCNQ2 inh: inactive; KCNQ2 inh baseline: 0.06

How did Cc1c2cnn(CC(=O)NCCCN3CCCCC3C)c(=O)c2c(C)n1Cc1ccccc1 (configuration not stated) do in these assays?
KCNQ2 inh: inactive; KCNQ2 inh baseline: 3.18

What do the screens show for `CNC(=O)CSc1nc2ccccc2c(=O)n1-c1cc(OC)ccc1OC`?
KCNQ2 inh: inactive; KCNQ2 inh baseline: 0.23

Results for COc1cccc(-c2nc(-c3ccc(Br)o3)no2)c1 ?
KCNQ2 inh: inactive; KCNQ2 inh baseline: 0.18

How did O=C(O)c1cn(-c2ccc(F)c(F)c2)c2c(F)c(F)c(F)c(F)c2c1=O do in these assays?
KCNQ2 inh: inactive; KCNQ2 inh baseline: -0.32

How did Cc1ccc(-c2ccc(/C=N/NC(=O)CN3CCOCC3)o2)cc1[N+](=O)[O-] do in these assays?
KCNQ2 inh: inactive; KCNQ2 inh baseline: 0.79

Results for COc1ccc(-c2nc(CN3CCN(Cc4cccc(Cl)c4)CC3)c(C)o2)cc1 ?
KCNQ2 inh: inactive; KCNQ2 inh baseline: -2.69

How did Cc1ccc(C)n1-c1nccc(-c2ccco2)n1 do in these assays?
KCNQ2 inh: inactive; KCNQ2 inh baseline: -0.37

How did CCCn1c(SCC(=O)Nc2cc(S(=O)(=O)N3CCOCC3)ccc2OC)n[nH]c1=O do in these assays?
KCNQ2 inh: inactive; KCNQ2 inh baseline: 1.15

How did CCN1CCCC1CNC(=O)c1cc(S(=O)(=O)N(C)C)ccc1Cl (configuration not stated) do in these assays?
KCNQ2 inh: inactive; KCNQ2 inh baseline: 0.99

What do the screens show for `O=C1CNC(=O)/C1=C\N1CCCCC1`?
KCNQ2 inh: inactive; KCNQ2 inh baseline: 1.76

How did CCOC(=O)c1ccccc1N1C(=O)C2Sc3[nH]c(=O)sc3C(/C=C/c3ccccc3)C2C1=O (configuration not stated) do in these assays?
KCNQ2 inh: inactive; KCNQ2 inh baseline: 0.81

What do the screens show for `CCc1ccccc1NC(=O)C1CCCN(c2ncnc3onc(-c4ccc(F)cc4)c23)C1` (configuration not stated)?
KCNQ2 inh: inactive; KCNQ2 inh baseline: -0.63

How did COc1ccc(CC2(C)OC(c3ccc(C)c([N+](=O)[O-])c3)=NN2C(C)=O)cc1 (configuration not stated) do in these assays?
KCNQ2 inh: inactive; KCNQ2 inh baseline: 0.42

Results for CCOC(=O)C1CCN(C(=O)C2CCN(S(=O)(=O)c3ccc4c(c3)CC(C)N4C(C)=O)CC2)CC1 (configuration not stated) ?
KCNQ2 inh: inactive; KCNQ2 inh baseline: -1.99

How did COc1ccc(CCNC(=O)Cc2cc(OC)c(OC)cc2Br)cc1OC do in these assays?
KCNQ2 inh: inactive; KCNQ2 inh baseline: 0.32

Results for CC1CC1C(=O)OCC(=O)Nc1cccc([N+](=O)[O-])c1 (configuration not stated) ?
KCNQ2 inh: inactive; KCNQ2 inh baseline: 0.09

Results for COc1ccc(C(=O)NCCCOC(C)C)cc1OC1CCN(C(C)=O)CC1 ?
KCNQ2 inh: inactive; KCNQ2 inh baseline: -0.19

What do the screens show for `Cc1ccc(NC(=O)NC2CCCCC2)cc1S(=O)(=O)N1CCOCC1`?
KCNQ2 inh: inactive; KCNQ2 inh baseline: 0.04

What do the screens show for `CCCCC1=CC2=C(c3ccco3)C(=O)C(C)(OC(=O)c3ccc(OC)cc3)C(=O)C2=CN1c1ccccc1` (configuration not stated)?
KCNQ2 inh: inactive; KCNQ2 inh baseline: 0.41

What do the screens show for `Cc1nn(-c2ccccc2)c(C)c1NC(=O)c1cccs1`?
KCNQ2 inh: inactive; KCNQ2 inh baseline: -1.34

How did S=C(Nc1ccc(Oc2ccccc2)cc1)NC1CCCCC1 do in these assays?
KCNQ2 inh: inactive; KCNQ2 inh baseline: -0.37

What do the screens show for `CCn1c(-c2cc(Br)cc(OC)c2O)nc2cc(S(=O)(=O)N(C)C)ccc21`?
KCNQ2 inh: inactive; KCNQ2 inh baseline: -0.59

Results for CC1=C(C#N)C(=O)NC(=O)/C1=C\c1ccc(-c2ccc(C)cc2[N+](=O)[O-])o1 ?
KCNQ2 inh: inactive; KCNQ2 inh baseline: -0.05

How did S=C(c1ccc(Br)cc1)N1CCCC1 do in these assays?
KCNQ2 inh: inactive; KCNQ2 inh baseline: -0.7

Results for Cc1ccccc1CSCC(=O)Nc1ccccc1-c1ccccc1 ?
KCNQ2 inh: inactive; KCNQ2 inh baseline: 0.78

Results for CC(=O)Nc1ccc(-c2ccc(NC(C)=O)cc2)cc1 ?
KCNQ2 inh: inactive; KCNQ2 inh baseline: 0.8

Results for O=C(/C=C/c1ccc[nH]1)c1ccccc1 ?
KCNQ2 inh: inactive; KCNQ2 inh baseline: -1.46

Results for Cc1ncc([N+](=O)[O-])n1CC(=O)NC1CCCCCC1 ?
KCNQ2 inh: inactive; KCNQ2 inh baseline: -0.03

What do the screens show for `COc1ccccc1-c1noc(-c2cc(OC)c(OC)c(OC)c2)n1`?
KCNQ2 inh: inactive; KCNQ2 inh baseline: 0.14

Results for CN1CCC(N(C)S(=O)(=O)c2ccc(NC(=O)COc3cccc(C(F)(F)F)c3)cc2)CC1 ?
KCNQ2 inh: inactive; KCNQ2 inh baseline: -0.26

2 entries drawn at random from the list so far:
What do the screens show for `Cc1cc(C(=O)Nc2c(F)cc(F)cc2Br)c(C)o1`?
KCNQ2 inh: inactive; KCNQ2 inh baseline: 1.02

How did O=C(O)c1cn(-c2ccc(F)c(F)c2)c2c(F)c(F)c(F)c(F)c2c1=O do in these assays?
KCNQ2 inh: inactive; KCNQ2 inh baseline: -0.32

Carrying on.
How did c1ccc(-c2cn(CC3CCCCC3)nn2)cc1 do in these assays?
KCNQ2 inh: inactive; KCNQ2 inh baseline: -0.16

Results for CCCCN1C(=O)N(C)C2NC(=S)NC21 (configuration not stated) ?
KCNQ2 inh: inactive; KCNQ2 inh baseline: 1.9

What do the screens show for `CCC(Oc1ccccc1)C(=O)NCCOC` (configuration not stated)?
KCNQ2 inh: inactive; KCNQ2 inh baseline: 0.33

How did CCC(Oc1ccccc1)C(=O)N(Cc1ccccc1)c1ccccn1 (configuration not stated) do in these assays?
KCNQ2 inh: inactive; KCNQ2 inh baseline: -0.48

What do the screens show for `CC(=O)N1CCc2cc(NC(=O)c3ccc(C)cc3)ccc21`?
KCNQ2 inh: inactive; KCNQ2 inh baseline: -0.27

Results for O=C(N/N=C\c1cn(-c2ccccc2)nc1-c1ccccc1)c1ccc2c(c1)OCO2 ?
KCNQ2 inh: inactive; KCNQ2 inh baseline: -0.31

Results for Cc1cccc(NCc2ccc(O)c3ncccc23)c1C ?
KCNQ2 inh: inactive; KCNQ2 inh baseline: -0.59

How did CC(=O)N(C1=C(Cl)C(=O)c2ccccc2C1=O)c1ccc(C(=O)O)cc1 do in these assays?
KCNQ2 inh: -10.4*; KCNQ2 inh baseline: -8.84*

How did Cc1nc(SCC(=O)c2ccccc2)n[nH]1 do in these assays?
KCNQ2 inh: inactive; KCNQ2 inh baseline: 1.04

Results for COc1cc(OC)cc(N(C(=O)CNC(=O)c2ccco2)C(C(=O)NCC2CCCO2)c2ccccc2)c1 (configuration not stated) ?
KCNQ2 inh: inactive; KCNQ2 inh baseline: 0.93

Results for OCC[C@@H]1C[C@@H](O)[C@H](O)[C@@]2(CCc3ccccc3O2)O1 ?
KCNQ2 inh: inactive; KCNQ2 inh baseline: 0.89

Results for Cc1ccc(C(=O)NCCNS(=O)(=O)c2ccccc2)cc1 ?
KCNQ2 inh: inactive; KCNQ2 inh baseline: 1.31

Results for COc1ccc(Nc2oc(COc3ccccc3OC)nc2C#N)cc1 ?
KCNQ2 inh: inactive; KCNQ2 inh baseline: -2.12

How did CCCNC(=O)N[C@@H](Cc1ccccc1)C(=O)OC do in these assays?
KCNQ2 inh: inactive; KCNQ2 inh baseline: 0.71

Results for CC(=O)c1c(C)[nH]c(C(=O)/C(C#N)=C/c2cccc(C)c2)c1C ?
KCNQ2 inh: inactive; KCNQ2 inh baseline: 0.97

How did O=C(c1ccco1)N1CCN(c2ncnc3scc(-c4cccs4)c23)CC1 do in these assays?
KCNQ2 inh: inactive; KCNQ2 inh baseline: -0.63

How did O=C1c2ccccc2C(Nc2cccnc2)N1Cc1ccc2c(c1)OCO2 (configuration not stated) do in these assays?
KCNQ2 inh: inactive; KCNQ2 inh baseline: -0.95

Results for O=C(NCc1ccc2c(c1)OCO2)C1CC(=O)N(C2CCCC2)C1 (configuration not stated) ?
KCNQ2 inh: inactive; KCNQ2 inh baseline: -0.37

Results for O=C1Nc2ccccc2/C1=N\N=C\C1=C(N2CCOCC2)C(=C\c2ccccc2)/CC1 ?
KCNQ2 inh: inactive; KCNQ2 inh baseline: -3.17

How did O=C(Nc1ccc(Cl)cc1)N1CCCN(c2ccc(C(F)(F)F)cc2[N+](=O)[O-])CC1 do in these assays?
KCNQ2 inh: inactive; KCNQ2 inh baseline: 0.85

How did O=C(/C=C/NNC(=O)c1cccc(Br)c1)c1ccccc1 do in these assays?
KCNQ2 inh: inactive; KCNQ2 inh baseline: -0.5

What do the screens show for `CCn1cc(C(=O)Nc2ncccc2O)c(=O)c2cc(F)c(N3CCN(C(=O)c4ccco4)CC3)cc21`?
KCNQ2 inh: inactive; KCNQ2 inh baseline: -2.95

How did Cc1ccc(C2C(C#N)=C(N)Oc3c2c(=O)n(C)c(=O)n3C)cc1 (configuration not stated) do in these assays?
KCNQ2 inh: inactive; KCNQ2 inh baseline: 2.2

What do the screens show for `CCOc1ccccc1C(=O)NCCNC(=O)c1ccccc1OCC`?
KCNQ2 inh: inactive; KCNQ2 inh baseline: -0.02

Next section; the last seven above are carried over.
Results for O=C(NCc1ccc2c(c1)OCO2)C1CC(=O)N(C2CCCC2)C1 (configuration not stated) ?
KCNQ2 inh: inactive; KCNQ2 inh baseline: -0.37

Results for O=C1Nc2ccccc2/C1=N\N=C\C1=C(N2CCOCC2)C(=C\c2ccccc2)/CC1 ?
KCNQ2 inh: inactive; KCNQ2 inh baseline: -3.17

How did O=C(Nc1ccc(Cl)cc1)N1CCCN(c2ccc(C(F)(F)F)cc2[N+](=O)[O-])CC1 do in these assays?
KCNQ2 inh: inactive; KCNQ2 inh baseline: 0.85

How did O=C(/C=C/NNC(=O)c1cccc(Br)c1)c1ccccc1 do in these assays?
KCNQ2 inh: inactive; KCNQ2 inh baseline: -0.5

What do the screens show for `CCn1cc(C(=O)Nc2ncccc2O)c(=O)c2cc(F)c(N3CCN(C(=O)c4ccco4)CC3)cc21`?
KCNQ2 inh: inactive; KCNQ2 inh baseline: -2.95

How did Cc1ccc(C2C(C#N)=C(N)Oc3c2c(=O)n(C)c(=O)n3C)cc1 (configuration not stated) do in these assays?
KCNQ2 inh: inactive; KCNQ2 inh baseline: 2.2

What do the screens show for `CCOc1ccccc1C(=O)NCCNC(=O)c1ccccc1OCC`?
KCNQ2 inh: inactive; KCNQ2 inh baseline: -0.02

What do the screens show for `O=C(CCCn1c(=O)[nH]c2ccsc2c1=O)Nc1ccc(F)cc1`?
KCNQ2 inh: inactive; KCNQ2 inh baseline: 1.44

What do the screens show for `CC(C)c1ccc(C2NC(=O)NC3=C2CCc2ccccc23)cc1` (configuration not stated)?
KCNQ2 inh: inactive; KCNQ2 inh baseline: 1.26

Results for C/C(=N\NC(=O)c1c(Br)c(C)nn1C)c1cccc(NC(=O)c2ccccc2C)c1 ?
KCNQ2 inh: inactive; KCNQ2 inh baseline: 0.01

How did CSc1n[nH]c(=S)n1N do in these assays?
KCNQ2 inh: inactive; KCNQ2 inh baseline: 0.52

How did COCc1cc(C)nc(N/N=C/c2ccc(-c3ccc(Cl)cc3[N+](=O)[O-])o2)c1C#N do in these assays?
KCNQ2 inh: inactive; KCNQ2 inh baseline: 1.21

What do the screens show for `O=C(/C=C/c1ccc(OCc2ccccc2)c(OCc2ccccc2)c1)c1cccnc1`?
KCNQ2 inh: inactive; KCNQ2 inh baseline: -0.12

What do the screens show for `COC(=O)c1oc2ccc(Br)cc2c1NC(C)=O`?
KCNQ2 inh: inactive; KCNQ2 inh baseline: -2.4

How did COc1ccc2[nH]c(C(=O)N(Cc3ccccn3)Cc3ccccn3)cc2c1 do in these assays?
KCNQ2 inh: inactive; KCNQ2 inh baseline: -0.02

How did Cc1ccc(OCC(=O)NC2CC(C)(C)NC(C)(C)C2)c(C)c1 do in these assays?
KCNQ2 inh: inactive; KCNQ2 inh baseline: 0.49

Results for CCC(=O)Nc1ccc(NC(=O)c2cccc3ccccc23)cc1 ?
KCNQ2 inh: inactive; KCNQ2 inh baseline: -0.08

How did Cc1ccc(C)c(S(=O)(=O)N2CCN(CC(=O)NC(=O)NCc3ccccc3)CC2)c1 do in these assays?
KCNQ2 inh: inactive; KCNQ2 inh baseline: 1.01

Results for COc1ccccc1C(=O)NCCOc1ccc(C)c(C)c1 ?
KCNQ2 inh: inactive; KCNQ2 inh baseline: 0.69

What do the screens show for `Cc1ccc(NC(=O)c2cnc(SCC(=O)NCC3CCCO3)n(C)c2=O)cc1` (configuration not stated)?
KCNQ2 inh: inactive; KCNQ2 inh baseline: -1.93

What do the screens show for `Cc1[nH]c2ccc(C(=O)N3CCCCC3)cc2c1C`?
KCNQ2 inh: inactive; KCNQ2 inh baseline: 0.29
